Screening results from PubChem.
VDR inhibitor = vitamin D3 receptor (human) inhibition | P11473 | VDR-SRC2-3 peptide fluorescence polarization, 2 h | Potency, µM, for the others: max response, negative = inhibition, hits mostly inhibitors | actives 0.93% (n = 400,000) | AID 504847; active means well fitted inhibition curve with a large enough effect; inconclusive means small, poorly fitted or top-dose-only effect, or another doubt; inactive means no such curve, though single readings can be large or run the other way; further: series mostly up to about 120 µM
Target sequence (P11473 whole entry, looked up): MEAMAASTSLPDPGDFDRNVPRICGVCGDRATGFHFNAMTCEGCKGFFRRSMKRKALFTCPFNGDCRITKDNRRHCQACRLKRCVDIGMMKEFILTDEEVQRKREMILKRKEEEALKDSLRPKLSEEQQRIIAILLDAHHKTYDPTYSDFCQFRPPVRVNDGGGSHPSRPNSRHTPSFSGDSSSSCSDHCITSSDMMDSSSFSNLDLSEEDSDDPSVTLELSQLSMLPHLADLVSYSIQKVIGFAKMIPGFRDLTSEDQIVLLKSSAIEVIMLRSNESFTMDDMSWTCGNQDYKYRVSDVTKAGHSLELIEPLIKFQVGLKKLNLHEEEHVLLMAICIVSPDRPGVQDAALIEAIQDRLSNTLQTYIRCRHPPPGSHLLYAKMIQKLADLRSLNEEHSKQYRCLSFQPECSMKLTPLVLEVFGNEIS
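The screen uses fluorescence polarization to detect compounds that interfere with recruitment of the SRC2-3 coactivator peptide to VDR; plates are read after 2 h at room temperature.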
An asterisk follows results filed as active; ? = inconclusive; & = joins results of further samples. On the % scale 0 is the no-effect control and ±100 the full control effect; potency means the concentration at half of the fitted maximal effect. An excerpt. The share of hits here may be higher or lower than overall.

canonical_smiles	VDR inhibitor
Cc1ccc(NC(=O)CCNS(=O)(=O)c2cc(Br)cnc2N)cc1Cl	0%
CCOc1ccc(C(=O)CN2C(=O)NC3(CCCCCC3)C2=O)cc1	4%
O=C(Cc1ccc(NC(=O)C2CCCN(C(=O)C3CCCCC3)C2)cc1)Nc1ccc(C(=O)N2CCOCC2)cc1 (stereo not drawn)	-4%
COc1cc(OC)cc(C(=O)NCc2ccc3c(c2)CCN3C(=O)c2ccccc2)c1	17%
Cc1ccc2nc(/C(C#N)=C\c3ccc(N4CCCCC4)c([N+](=O)[O-])c3)[nH]c2c1	-5%
CCOc1ccc(C(C(=O)NCC2CCCO2)N(Cc2ccccc2)C(=O)c2snc(C(N)=O)c2N)cc1 (stereo not drawn)	1%
O=S(=O)(Nc1cc(S(=O)(=O)N2CCOCC2)ccc1O)c1ccc2c(c1)OCCCO2	25µM*
Cc1cccc(N2CCN(S(=O)(=O)c3cc(C(=O)Nc4ccc(Oc5ccccc5)cc4)ccc3F)CC2)c1C	18%
CN(C)c1ccc(CNCCC2(O)CCOC(C)(C)C2)cc1 (stereo not drawn)	4%
O=C(Nc1cccnc1)c1noc2c1CCCC2	4%
CCOC(=O)CSc1nc(-c2ccc3c(c2)OCO3)ccc1C#N	4%
COc1ccc(-c2nc3c4ccccc4n(CC(=O)Nc4cc(F)ccc4F)c(=O)n3n2)cc1	2%
COc1ccccc1CC(=O)NCC1CCCO1 (stereo not drawn)	-4%
Cc1cccc(C(=O)n2nc(-c3ccco3)nc2NCc2ccccc2)c1	14%
Cc1ccc(S(=O)(=O)N2CCN=C2SCc2ccc(Cl)c(Cl)c2)cc1	-12%

(continued)
canonical_smiles	VDR inhibitor
Cc1cc(N2CCN(C)CC2)nc2ccc(NC(=O)c3ccccc3F)cc12	-10%&-6%
Cc1ccnc(NS(=O)(=O)c2ccc(NC(=O)C3CC3)cc2)n1	1%
CCC(=O)N1c2ccccc2NC2=C(C(=O)CC(C)(C)C2)C1c1ccc(O)c(OC)c1 (stereo not drawn)	-27%
CCOC(=O)Cc1csc(NC(=O)C2CCCN(S(=O)(=O)c3cnc[nH]3)C2)n1 (stereo not drawn)	?
Cn1c(CNC(=O)CCNC(=O)c2ccc(F)c(F)c2)cc(=O)n(C)c1=O	-5%
Cc1cc(C)nc(-n2nc(C)c3c(C(F)F)cc(C)nc32)n1	-10%
Cc1ccc(-c2nc(-c3cc4cccc(OCc5ccc(F)cc5)c4oc3=O)no2)cc1	-29%
O=C(Cc1c[nH]c2ccccc12)NCc1ccc2c(c1)OCO2	-1%
O=C(O)c1cnn2cc(-c3[nH]ncc3[N+](=O)[O-])cnc12	-20%
Fc1ccc(C2c3cccn3CCN2C(=S)Nc2cccc(F)c2)cc1 (stereo not drawn)	15%
CC(=O)OC1CC(n2ccc(NC(=O)c3ccccc3)nc2=O)OC1CO (stereo not drawn)	0%
CCOC(=O)c1c(C)[nH]c(C)c1S(=O)(=O)N(C)CC(=O)Nc1ccccc1OC	-10%
COc1cc(O)c(C(CC(=O)N2CCCC(C)C2)c2ccc3c(c2)OCO3)c(OC)c1 (stereo not drawn)	-8%&10%
CCOC(=O)c1c(NC(=O)CC2Sc3ccc(C(F)(F)F)cc3NC2=O)sc(C)c1C (stereo not drawn)	?
FCCCOc1ccc(/C=N/OCc2ccc(Cl)cc2Cl)cc1	1%

An excerpt from above in order of formula weight, rising:
canonical_smiles	VDR inhibitor
O=C(Cc1c[nH]c2ccccc12)NCc1ccc2c(c1)OCO2	-1%
Cn1c(CNC(=O)CCNC(=O)c2ccc(F)c(F)c2)cc(=O)n(C)c1=O	-5%
CCOC(=O)c1c(C)[nH]c(C)c1S(=O)(=O)N(C)CC(=O)Nc1ccccc1OC	-10%

Remaining list, next part
canonical_smiles	VDR inhibitor
N[C@@H](Cc1ccccc1)c1nnc(SCc2ccccc2F)o1	-5%
Nn1c(SCC(=O)N2CCc3ccccc3C2)nnc1-c1cccs1	19%
COc1cc2cnc(-c3ccccc3)c(-c3cc(OC)c(OC)c(OC)c3)c2cc1OC	-2%
Cc1nnc2c3ccccc3nc(N3CCN(c4ccccc4)CC3)n12	4%
Cc1nn(-c2ccccn2)c2c1C(=O)C(Br)CC2 (stereo not drawn)	18µM*
CC(=O)Nc1ccc(S(=O)(=O)N2CCCCC2C(=O)O)cc1 (stereo not drawn)	-4%
Cc1ccc(N2CC(c3nnc(Cc4ccc(Cl)cc4)o3)CC2=O)cc1 (stereo not drawn)	5%
Cc1cc(C)c(NC(=O)c2ccccc2N(C)S(C)(=O)=O)c(C)c1	8%
COc1ccc(C(=O)NNC(=O)CSc2nnnn2-c2cc(OC)cc(OC)c2)cc1	18%
CCC(C)c1ccc(N(C(=O)c2ccco2)C(C(=O)NC2CCCC2)c2cccnc2)cc1 (stereo not drawn)	20%
COc1cc(S(=O)(=O)Nc2ccc(C)cc2)ccc1N=Cc1c(C)[nH]n(-c2ccc(C)cc2)c1=O	13%
Cc1ccc(S(=O)(=O)N2C[C@@H]3[C@H]4CC[C@H](C4)[C@@H]3[C@@H](C)[C@@H]2c2ccn([Si](C(C)C)(C(C)C)C(C)C)c2)cc1	1%
C/C(N)=C(/C#N)C(=O)COC(=O)c1ccc(OCC2CCCO2)cc1 (stereo not drawn)	3%
Cc1cccc(C(=O)Nc2ccccc2C(=O)OCc2c(C)noc2C)c1	-10%
Cc1nnsc1-c1c(C(=O)O)c(C)nn1-c1ccc(OC(F)(F)F)cc1	-9%

Some of these compounds in order of their number in VDR inhibitor, rising.
canonical_smiles	VDR inhibitor
N[C@@H](Cc1ccccc1)c1nnc(SCc2ccccc2F)o1	-5%
CC(=O)Nc1ccc(S(=O)(=O)N2CCCCC2C(=O)O)cc1 (stereo not drawn)	-4%
Cc1ccc(S(=O)(=O)N2C[C@@H]3[C@H]4CC[C@H](C4)[C@@H]3[C@@H](C)[C@@H]2c2ccn([Si](C(C)C)(C(C)C)C(C)C)c2)cc1	1%
Cc1cc(C)c(NC(=O)c2ccccc2N(C)S(C)(=O)=O)c(C)c1	8%
COc1cc(S(=O)(=O)Nc2ccc(C)cc2)ccc1N=Cc1c(C)[nH]n(-c2ccc(C)cc2)c1=O	13%
CCC(C)c1ccc(N(C(=O)c2ccco2)C(C(=O)NC2CCCC2)c2cccnc2)cc1 (stereo not drawn)	20%

Continued.
canonical_smiles	VDR inhibitor
Cc1cccc(C(=O)Nc2nnc(Cc3ccccc3)s2)c1	11%
CC(NS(=O)(=O)c1ccc(Br)cc1)C(=O)NCC1CCCO1 (stereo not drawn)	4%
CCOC(=O)C1CCCN(c2c(Nc3ccc(C)c(C)c3)c(=O)c2=O)C1 (stereo not drawn)	-16%
O=c1[nH]cn[nH]1	5%
CC(C)(C)n1nnnc1C(c1ccc(F)cc1)N1CCN(Cc2ccc3c(c2)OCO3)CC1 (stereo not drawn)	2%
COc1ccc(NC(=O)C(NC(=O)Cc2cccs2)c2ccc(C)cc2)cc1 (stereo not drawn)	-8%
Cc1ccc(Cn2c(CNS(=O)(=O)c3ccc(C(C)(C)C)cc3)nc3cccnc32)cc1	-8%
COC(=O)COc1cc(C)cc2oc(=O)c(CC(=O)OC)c(C)c12	-6%
CCOc1ccc(-n2cc(-c3ccccc3)c3c(N4CCC(C)CC4)ncnc32)cc1	11%
O=C(NC1CC(=O)N(c2ccc(Cl)cc2)C1)N1CCN(C(=O)c2ccco2)CC1 (stereo not drawn)	3%
COc1ccccc1NC(=O)Cn1ccn(-c2cccc3ccccc23)c(=O)c1=O	-12%
COc1cc(/C=N/N2C(=O)C3C4c5ccccc5C(c5ccccc54)C3C2=O)ccc1O (stereo not drawn)	-3%
COc1cc(OC)cc(C(=O)Nc2ncc3c(n2)CC(C)(C)CC3=O)c1	17%
Cc1ccc(S(=O)(=O)NC2(C(F)(F)F)NC(=O)N(c3ccccc3F)C2=O)cc1 (stereo not drawn)	-21%
O=C(O)c1csc(-c2ccccc2)n1	3%

Next records follow:
canonical_smiles	VDR inhibitor
C#CCSc1nc(Cc2ccc(Cl)cc2)nc2ccccc12	5%
CCN1C(=O)c2cccc3c(S(=O)(=O)NCCc4c[nH]c5ccccc45)ccc1c23	11%
Cc1ccc(-c2cc(C(=O)N3CCOCC3)no2)cc1	?
COc1cc(C)cc2oc(=O)c(CC(=O)NCCc3ccc(Cl)cc3)c(C)c12	9%
Cc1ccccc1-c1nc(S(=O)(=O)c2ccc(Cl)cc2)c(NCCN2CCOCC2)o1	-19%
CCC1CCc2nc3sc(C(=O)Nc4ccc(F)c(F)c4)c(N)c3cc2C1 (stereo not drawn)	?
CCn1cnc2cc(NCc3ccccc3Cl)ccc21	-18%
COc1ccc2c(c1)c1c(c(=O)n(-c3cccc(C)c3)c(=O)n1Cc1cccc(Cl)c1)n2C	9%
CC(=O)Nc1cccc(NC(=O)Nc2ccc(C)c(Cl)c2)c1	2%
CCn1c(SC(C)C(=O)N2CCOCC2)nc2sc(C)c(C)c2c1=O (stereo not drawn)	-18%
Cc1cccc(-n2nc3c(c2NC(=O)c2ccc4c(c2)OCO4)CS(=O)(=O)C3)c1C	-12%
O=C1CCCC2=C1C(c1cccs1)Nc1ccc3ncccc3c12 (stereo not drawn)	-15%
CCC(=O)c1cn(CC(=O)Nc2ccccc2Cl)c2ccccc12	3%
COc1cc2c(cc1OC)C(c1cccnc1)CC(=O)N2 (stereo not drawn)	7%
CCOc1ccc(N2C(=O)Nc3ccc(Br)cc3C2(O)C(=O)NCCCN(C)C)cc1 (stereo not drawn)	-8%

Next part:
compound | VDR inhibitor
CC(C)(C)c1ccc(OCCC(=O)NC2=NCCS2)cc1 | -2%
Cc1ccccc1NC(=O)CNc1ccc(Cl)c(C(F)(F)F)c1 | -6%
Cc1cc(C)cc(OCC(=O)OCC(=O)Nc2cc(C)nn2-c2ccccc2)c1 | 9%
CCCCCCOc1ccc(/C(C)=N/NC2=NCCN2)cc1 | -7%
COc1ccc(CCNC(=O)CC2(CC3=NS(=O)(=O)c4ccccc4N3)CCCC2)cc1OC | 13%
Cc1cccc(N=C2N=C(N)c3ccccc32)c1 | ?
CCOc1ccc2nc(Nc3nc4ccc(NC(C)=O)cc4s3)sc2c1 | ?
Cc1cc2oc(C(=O)N(Cc3ccccc3)C3CCS(=O)(=O)C3)cc(=O)c2cc1C (stereo not drawn) | -1%
CCOC(=O)C1(CC2CCCCO2)CCN(C(=O)Nc2ccccc2CC)CC1 (stereo not drawn) | 6%
C=CCNc1nc(-c2sc(NC(=O)CC)nc2C)cs1 | -10%
CC(=O)Nc1ccc(C(=O)COC(=O)C2CC3CCCC(C2)C3=O)cc1 (stereo not drawn) | -12%
COCCNc1ncnc2c1c(-c1ccccc1)cn2-c1ccc(C)c(Cl)c1 | -5%
Cc1ccccc1CNC(=O)C(C)N(c1ccccc1)S(C)(=O)=O (stereo not drawn) | -26%
Cc1cccc2cc(CN(CCN(C)C)C(=S)NCc3ccco3)c(=O)[nH]c12 | 1%
O=C(NCCCN1CCN(Cc2ccccc2Cl)CC1)Nc1ccccc1 | 4%
COCCCNC(=S)N1CCN(c2nc(-c3ccccc3)cs2)CC1 | -12%
O=C(CCc1nc2ccccc2s1)OCC(=O)N1CCN(C(=O)c2ccco2)CC1 | -3%
O=C(OCCN=C1NS(=O)(=O)c2ccccc21)c1ccccc1 | 8%
CCc1ccccc1Nc1nc2ccccc2c2nncn12 | 1%
CCCNC(=O)C1CCC(Cn2c(=O)c3sccc3n(Cc3ccccc3F)c2=O)CC1 (stereo not drawn) | 4%
COc1ccc(C2CC2/C(C)=N/OC(=O)c2ccc(F)cc2)cc1 (stereo not drawn) | -9%
COc1cc(/C=N/n2c(C)n[nH]c2=S)ccc1OCc1ccccc1 | -25%
COc1ccccc1C(=O)NC(CCSC)C(=O)NCCCSc1ccccc1 (stereo not drawn) | -8%
CCCCNC(=O)C1CCN(S(=O)(=O)c2ccc3c(ccn3CC)c2)CC1 | 1%
O=C(N1CCOCC1)N1CCc2ccccc21 | -7%

The final four entries of the section before open the next one:
compound | VDR inhibitor
COc1cc(/C=N/n2c(C)n[nH]c2=S)ccc1OCc1ccccc1 | -25%
COc1ccccc1C(=O)NC(CCSC)C(=O)NCCCSc1ccccc1 (stereo not drawn) | -8%
CCCCNC(=O)C1CCN(S(=O)(=O)c2ccc3c(ccn3CC)c2)CC1 | 1%
O=C(N1CCOCC1)N1CCc2ccccc21 | -7%
COc1cc2c(cc1NC(=O)COC(=O)[C@@H](NC(=O)c1ccccc1F)C(C)C)oc1ccccc12 | 21%
CNS(=O)(=O)c1cccc(C(=O)OCC(=O)Nc2ccc(OC)cc2[N+](=O)[O-])c1 | -1%
C=C(C)Cn1c(N(CCO)Cc2ccccc2)nc2c1c(=O)[nH]c(=O)n2C | -12%
Cc1cc(N2CCCCC2)nc2ccc(NC(=O)c3cccc(Cl)c3)cc12 | 12%
O=C(Nc1c(Cl)cc(Cl)cc1C(=O)NCC1CCCO1)c1ccco1 (stereo not drawn) | 6%
COc1ccc(-n2nc(C(=O)NCc3ccco3)c3ccccc3c2=O)cc1 | 5%
Cc1cccc(/C=N/NC(=O)CN2CCCCCCC2)c1 | -14%
NC(=O)c1c(NC(=O)C2c3ccccc3Oc3ccccc32)sc2c1CCCCC2 | -28%
CC(NC(=O)CN1C(=O)NC2(CCCC2)C1=O)c1ccc(Cl)cc1Cl (stereo not drawn) | 1%
COc1cc(C2C(C#N)=C(N)Oc3cc(C)n(CCN4CCOCC4)c(=O)c32)cc(OC)c1OC (stereo not drawn) | 9%
N#Cc1ccsc1NC(=O)CN1CCN(S(=O)(=O)c2ccccc2C(F)(F)F)CC1 | -6%
CCOC(=O)c1cc(-c2ccco2)nc2c1c(C)nn2-c1cccc(Cl)c1 | 1%
Cc1cccc(-n2c(=S)[nH]c3nc4c(cc3c2=O)COC(C)(C)C4)c1 | -1%
Cc1ccc(NC(=O)CSc2ncccn2)cc1S(=O)(=O)N1CCOCC1 | 11%
COc1ccc(-c2c/c(=N\c3nc(-c4ccccc4)c(C)s3)c3ccccc3o2)cc1O | 14%
CCOc1cc(C(=O)N2CCN=C2SC)cc(OCC)c1OCC | -5%
Cn1cccc1-c1nc2ccccc2[nH]1 | -4%
